Compound activity as filed in PubChem.
AmpC inh no det = AmpC beta-lactamase inhibition, detergent-free assay. P00811. AmpC nitrocefin hydrolysis, absorbance 480 nm, no detergent; potencies from a single point are estimates. Potency, µM (series often up to 28.7 µM), for the others: at the highest dose activity change, negative = inhibition. 71,000 tested, 1.8% active. AID 585; active = falling curve, for most hits resting on a single point; inconclusive = weak or doubtful change; inactive = flat or rising curve; also: % of control where 0% means no effect; about half of the hits show no inhibition at the top dose; a quarter of the inactives give rising signals
Target sequence (P00811 whole entry, looked up): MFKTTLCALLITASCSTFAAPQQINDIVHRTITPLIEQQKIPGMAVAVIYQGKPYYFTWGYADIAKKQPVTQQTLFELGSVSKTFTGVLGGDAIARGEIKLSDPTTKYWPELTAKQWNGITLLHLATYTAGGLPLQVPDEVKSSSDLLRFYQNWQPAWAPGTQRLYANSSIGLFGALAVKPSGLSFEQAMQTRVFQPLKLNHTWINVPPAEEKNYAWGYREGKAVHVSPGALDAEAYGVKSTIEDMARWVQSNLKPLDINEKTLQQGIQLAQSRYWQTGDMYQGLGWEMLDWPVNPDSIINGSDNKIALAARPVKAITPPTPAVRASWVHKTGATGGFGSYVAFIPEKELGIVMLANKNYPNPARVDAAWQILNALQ
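AmpC in 20 mM phosphate buffer pH 7.0 was preincubated 15 min at room temperature with compounds. Nitrocefin (800 uM stock) was then added and hydrolysis followed at 480 nm every 20 s for 4 min.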
Numbers without * were called inactive; [ ] = dose if it differs, or a comment. Potency is read from the fitted curve at half-maximal effect. Not all compounds are listed; the hit share may differ from the screen's.

mol: CC(c1ccccc1)n1cncc1C(=O)N1CCCC1=O (stereo not drawn)
  AmpC inh no det: -6.0%
mol: COc1ccc(NC(=O)CCCNS(=O)(=O)c2cccs2)cc1
  AmpC inh no det: -14.8%
mol: Cc1ccccc1-c1ccc2ncnc(NCc3cccs3)c2c1
  AmpC inh no det: -0.9%
mol: CCn1ncc(Br)c1C(=O)N(C)C12CC3CC(CC(C3)C1)C2
  AmpC inh no det: 63.7%
mol: Nc1ncnc2c1ncn2[C@@H]1O[C@@H](CO)[C@H](O)[C@H]1O
  AmpC inh no det: -5.5%[12.8 µM]
mol: O=C(CSc1nnc(-c2cccnc2)n1-c1ccccc1)Nc1ccc2c(c1)OCO2
  AmpC inh no det: 53.0%
mol: O=C(CS(=O)(=O)Cc1ccccc1)NCC1CCCO1 (stereo not drawn)
  AmpC inh no det: -10.6%
mol: CC(C)(C)NC(=O)Cn1nnc(-c2ccc(Cl)cc2)n1
  AmpC inh no det: -7.2%
mol: CC(C)COC(=O)c1ccc(NC(=O)C2C3CCC(C3)C2C(=O)O)cc1 (stereo not drawn)
  AmpC inh no det: 9.1%
mol: CCOc1ccccc1C1C(C#N)=C(N)SC(N)=C1C#N
  AmpC inh no det: -10.0%
mol: O=C(NCCO)c1scc2c1OCCO2
  AmpC inh no det: 8.5%
mol: CC1(C)CC(=O)C2=C(C1)NCN(CCCN1CCOCC1)C2
  AmpC inh no det: -8.7%
mol: CCOC(=O)c1ccc(N2C(=O)C3CC=CCC3C2=O)cc1 (stereo not drawn)
  AmpC inh no det: 4.1%
mol: COC(=O)c1ccc(C(NC(=O)OCc2ccccc2)/C(F)=C/[C@@H](C)C(=O)NCc2cc(C)on2)cc1 (stereo partly drawn)
  AmpC inh no det: 57.1%
mol: Cn1c(CCN2CCCCCC2)nc2cc(NC(=O)Nc3ccccc3)ccc21
  AmpC inh no det: 1.1%

Continued; the last three above are carried over.
mol: CCOC(=O)c1ccc(N2C(=O)C3CC=CCC3C2=O)cc1 (stereo not drawn)
  AmpC inh no det: 4.1%
mol: COC(=O)c1ccc(C(NC(=O)OCc2ccccc2)/C(F)=C/[C@@H](C)C(=O)NCc2cc(C)on2)cc1 (stereo partly drawn)
  AmpC inh no det: 57.1%
mol: Cn1c(CCN2CCCCCC2)nc2cc(NC(=O)Nc3ccccc3)ccc21
  AmpC inh no det: 1.1%
mol: O=C(O)c1cnc2ccccc2n1
  AmpC inh no det: -5.6%
mol: COc1ccc(C(=O)N2c3ccccc3CC2C)cc1OC (stereo not drawn)
  AmpC inh no det: 26.1%
mol: COc1cc(C(=O)OCC(=O)Nc2cc(C)on2)ccc1OCc1ccccc1Cl
  AmpC inh no det: 12.6µM*
mol: O=C(O)CCCCCNC(=O)CCn1cnc2ccccc2c1=O
  AmpC inh no det: 1.8%
mol: O=C1CCc2cc(S(=O)(=O)N3CCCC3C(=O)N3CCN(c4ccccc4)CC3)ccc2N1 (stereo not drawn)
  AmpC inh no det: 3.98µM*[single pt active]
mol: CC(=O)N1CCN(CCN(CC2C(C)C=C(C)CC2C)C(C)=O)CC1 (stereo not drawn)
  AmpC inh no det: 64.4%
mol: COc1ccc(NC(=O)CSc2nnc(Cc3cccn3C)n2-c2ccc(C)cc2)cc1OC
  AmpC inh no det: 138.2%
mol: CC1Cc2ccccc2N1C(=O)CSc1nnc(CNc2ccccc2)o1 (stereo not drawn)
  AmpC inh no det: 27.9%
mol: CCOC(=O)c1cnc(SC)nc1Nc1cccc(F)c1
  AmpC inh no det: -5.5%
mol: N#Cc1ccc(CN2CC3(CCN(C(=O)c4ccncc4)CC3)C2)cc1
  AmpC inh no det: 60.7%
mol: CC1CN(C(=O)N(C)C)CCN1C(=O)N(C)C (stereo not drawn)
  AmpC inh no det: -0.1%
mol: O=C(c1ccco1)c1nnn(Cc2ccccc2)c1-c1ccccc1
  AmpC inh no det: 18.5%
mol: O=C(Nc1cc(=O)c2ccccc2o1)N1CCCCC1
  AmpC inh no det: 22.1%
mol: CCC(CC)NC(=O)c1cc(OC)c(OC)c(OC)c1
  AmpC inh no det: 3.3%
mol: COc1cccc2c(=O)n(CC(=O)N3CCCc4ccccc43)ccc12
  AmpC inh no det: 14.0%

mol: CC(=O)NCCNc1nc(-c2ccc(C(=O)N(C)C)cc2)nc2ccccc12
  AmpC inh no det: 14.7%
mol: COc1ccc(CCN2CNc3c(c(=O)n(C)c(=O)n3C)C2)cc1
  AmpC inh no det: -4.5%
mol: CCOC(=O)CC(=O)CSc1ccc2nnc(-c3cccc(F)c3)n2n1
  AmpC inh no det: 9.9%
mol: CC1(c2ccc(Cl)cc2)NC(=O)N(CC(=O)N2CCCC2)C1=O (stereo not drawn)
  AmpC inh no det: -9.4%
mol: CCOC(=O)c1cccc(NC(=O)Cn2c(CC(=O)N3CCCC3)nc3ccccc32)c1
  AmpC inh no det: 57.5%
mol: Cc1ccc(OCC(=O)N2CCN(CC3CC4C=CC3C4)CC2)cc1 (stereo not drawn)
  AmpC inh no det: 110.6%
mol: CCN(CC)CCNC(=O)Cn1nc(-c2ccc(C)cc2)ccc1=O
  AmpC inh no det: -5.6%
mol: CC(=O)[C@]1(O)CC[C@@H]2[C@H]3C[C@@H](C)C4=CC(=O)CC[C@@]4(C)[C@H]3[C@@H](O)C[C@]21C
  AmpC inh no det: 12.7%[5.75 µM]
mol: O=C1CC(Cc2ccc(Cl)cc2)C(=O)N1c1ccccn1 (stereo not drawn)
  AmpC inh no det: 13.6%
mol: CC1CCCCN1C(=O)c1ccc(S(=O)(=O)N2CCCCC2C)cc1 (stereo not drawn)
  AmpC inh no det: 74.4%
mol: Cn1c(=O)[nH]c(=O)c2c1nc(SCCN1CCCCC1)n2CCCc1ccccc1
  AmpC inh no det: 18.2%
mol: CCCN(CCC)CCCNC(=O)c1cc2c(=O)n(C)c3ccccc3c2n1C
  AmpC inh no det: 18.4%
mol: CC1CN(C(=O)c2ccc(COCC(F)(F)F)o2)CC(C)O1 (stereo not drawn)
  AmpC inh no det: 8.9%
mol: Cc1c(N)cccc1N
  AmpC inh no det: -1.2%
mol: Cc1ccc2cc(CCNC(=O)C(C)C)c(=O)[nH]c2c1C
  AmpC inh no det: -6.0%

Random excerpt: 6 records from the list
mol: O=C1CC(Cc2ccc(Cl)cc2)C(=O)N1c1ccccn1 (stereo not drawn)
  AmpC inh no det: 13.6%
mol: CCN(CC)CCNC(=O)Cn1nc(-c2ccc(C)cc2)ccc1=O
  AmpC inh no det: -5.6%
mol: Cc1ccc(OCC(=O)N2CCN(CC3CC4C=CC3C4)CC2)cc1 (stereo not drawn)
  AmpC inh no det: 110.6%
mol: CC(=O)[C@]1(O)CC[C@@H]2[C@H]3C[C@@H](C)C4=CC(=O)CC[C@@]4(C)[C@H]3[C@@H](O)C[C@]21C
  AmpC inh no det: 12.7%[5.75 µM]
mol: CC1CCCCN1C(=O)c1ccc(S(=O)(=O)N2CCCCC2C)cc1 (stereo not drawn)
  AmpC inh no det: 74.4%
mol: CC1CN(C(=O)c2ccc(COCC(F)(F)F)o2)CC(C)O1 (stereo not drawn)
  AmpC inh no det: 8.9%

The results go on.
mol: COCCCN1C(=O)c2ccc(C(=O)NCc3ccco3)cc2C1=O
  AmpC inh no det: 7.0%
mol: CCCCn1c(CN(C)Cc2ccccc2)nc2c1c(=O)n(C)c(=O)n2C
  AmpC inh no det: 102.0%
mol: CC1(O)N(Cc2ccccc2)C(=O)OC12CCCCC2 (stereo not drawn)
  AmpC inh no det: 1.3%
mol: OCC1OC(n2nnc3ccccc32)C(O)C(O)C1O (stereo not drawn)
  AmpC inh no det: 2.8%
mol: Cc1ccc(C2CC(=O)C(C=NCCN3CCN(C(=O)Cc4ccccc4)CC3)=C(O)C2)cc1 (stereo not drawn)
  AmpC inh no det: 137.7%
mol: CC1(C)Cc2c(c(-c3ccco3)[nH]c(=O)c2C#N)CO1
  AmpC inh no det: -6.9%
mol: O=C1C2CC=C(Cl)CC2C(=O)N1CCc1c[nH]c2ccccc12 (stereo not drawn)
  AmpC inh no det: 6.1%
mol: O=C(OCCN1CCCC1)C1(c2ccccc2)CCCC1
  AmpC inh no det: 11.0%
mol: Cc1ccc(N2CCCCn3c2nc2c3c(=O)n(CC(=O)O)c(=O)n2C)cc1
  AmpC inh no det: 16.1%
mol: CCOC(=O)c1c(C)c(C(=O)N2CCN(C(=O)c3ccco3)CC2)c(C)n1C
  AmpC inh no det: 31.3%
mol: CCOC(=O)CSc1nncc2ccc(OC)c(OC)c12
  AmpC inh no det: -2.5%
mol: COc1ccccc1-n1cnc2cc(NS(=O)(=O)c3ccccc3)ccc21
  AmpC inh no det: -7.9%
mol: CCOc1ccc(CCNc2cc(C)nc3ncnn23)cc1OCC
  AmpC inh no det: 18.8%
mol: CCCSc1nnc(Cc2cc(=O)[nH]c(=O)[nH]2)n1-c1cc(C)ccc1C
  AmpC inh no det: 8.6%
mol: Cc1cccc2cc(C(c3nnnn3CC3CCCO3)N3CCOCC3)c(=O)[nH]c12 (stereo not drawn)
  AmpC inh no det: 2.3%

mol: CCCCn1c(SCC(=O)N2CCC(C)CC2)nc2cc(S(N)(=O)=O)ccc21
  AmpC inh no det: 12.2%
mol: COC(=O)[C@@]1(Cc2ccccc2)[C@H]2c3cc(C(=O)N4CCCC4)[nH]c3C[C@H]2CN1C(=O)c1ccccc1
  AmpC inh no det: 84.1%
mol: COc1ccc(Nc2cccccc2=O)cc1
  AmpC inh no det: -8.8%
mol: O=c1oc2ccccc2c(O)c1/C=N/c1nc(-c2ccc(O)c(O)c2)cs1
  AmpC inh no det: -26.0%[5.75 µM]
mol: CCn1nccc1C(=O)Nc1nccs1
  AmpC inh no det: -12.7%
mol: CCOC(=O)CSc1nc2ccccc2c(=O)n1CCCCCC(=O)NCc1ccco1
  AmpC inh no det: 65.2%
mol: O=c1cc(CN2CCN(C/C=C/c3ccccc3)CC2)c2cc(O)ccc2o1
  AmpC inh no det: -0.9%
mol: C[C@H]1CCCC=CC2C[C@H](OC(=O)CN(C)C)C[C@@H]2[C@@H](O)/C=C\C(=O)O1 (stereo partly drawn)
  AmpC inh no det: 20.9%[5.75 µM]
mol: COc1ccc(Cn2c(SCC(=O)NCc3ccco3)nc3ccsc3c2=O)cc1
  AmpC inh no det: -19.7%
mol: CCC(Oc1ccccc1)C(=O)N1CC(C)CC(C)C1 (stereo not drawn)
  AmpC inh no det: 24.4%
mol: CC(C)C[C@@H](CC(=O)N[C@H](CC(=O)N[C@@H]1CCNC[C@H]1C(=O)N[C@H](CC(=O)N[C@@H](CCC(=O)O)CC(=O)O)Cc1ccccc1)C(C)C)NC(=O)[C@@H]1CCCC[C@H]1N
  AmpC inh no det: 126.2%
mol: Cc1cccc(N(CC(=O)N2CCCC2)S(=O)(=O)c2ccccc2)c1
  AmpC inh no det: 39.3%
mol: Cc1nc2ncnn2c(C)c1CCC(=O)Oc1ccccc1
  AmpC inh no det: 2.7%
mol: CCCCNC(=O)C(c1ccc(OCC(=O)OC)c(C(=O)OC)c1)N(Cc1ccccn1)C(=O)CCCCCN1C(=O)NC(c2ccc(-c3ccccc3)cc2)C(C(=O)OCc2ccccc2)=C1C (stereo not drawn)
  AmpC inh no det: 46.1%
mol: O=C(O)[C@@H]1[C@@H](C(=O)O)[C@]23C[C@@]2(C(=O)O)[C@]2(C(=O)O)CCC3=C3CCCC312
  AmpC inh no det: -0.9%[5.75 µM]
mol: CC(C)[C@@H](CC(=O)N[C@@H]1CCNC[C@H]1C(=O)N[C@H](CC(=O)N[C@@H](CCC(=O)O)CC(=O)O)Cc1ccccc1)NC(=O)C[C@H](Cc1ccccc1)NC(=O)[C@@H]1CNCC[C@H]1N
  AmpC inh no det: 115.1%
